TRPML1 blocker = qHTS for Inhibitors of the Human Mucolipin Transient Receptor Potential 1 (TRPML1); Mucolipin-1 (Homo sapiens), Q9GZU1; TRPML1-inducible cells, Ca2+ dye fluorescence, FDSS; stronger effect = lower value; inhibition of EC80 agonist-evoked calcium signal; activity change, negative = inhibition, % (concentration not given with the values); 390,000 compounds, 0.02% hits; AID 624415, 2012; in the data active means activity change below about -50%; inconclusive means about -30% to -50%; inactive means above about -30%;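 further: stimulus is agonist 54-4 at its EC80 concentration; on the % scale 0 is the no-effect control and ±100 the full control effect; the text of the record puts the active cut at -80%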
Target sequence (Q9GZU1 whole entry, looked up): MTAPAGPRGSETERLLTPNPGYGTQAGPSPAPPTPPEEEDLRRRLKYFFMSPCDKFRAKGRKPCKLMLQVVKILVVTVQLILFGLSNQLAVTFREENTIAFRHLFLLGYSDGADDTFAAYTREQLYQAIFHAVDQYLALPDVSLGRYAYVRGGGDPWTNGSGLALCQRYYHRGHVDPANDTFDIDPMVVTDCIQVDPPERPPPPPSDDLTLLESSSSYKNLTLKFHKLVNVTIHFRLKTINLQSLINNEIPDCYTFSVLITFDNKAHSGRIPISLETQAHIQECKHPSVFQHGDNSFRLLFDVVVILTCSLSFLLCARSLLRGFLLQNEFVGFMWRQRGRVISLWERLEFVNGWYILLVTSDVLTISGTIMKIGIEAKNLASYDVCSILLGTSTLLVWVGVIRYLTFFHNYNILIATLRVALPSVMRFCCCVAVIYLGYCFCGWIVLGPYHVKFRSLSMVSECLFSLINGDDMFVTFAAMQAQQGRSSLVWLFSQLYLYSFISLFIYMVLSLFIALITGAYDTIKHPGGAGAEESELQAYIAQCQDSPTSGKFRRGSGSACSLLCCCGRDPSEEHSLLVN
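TRPML1-DL cells, Tet-induced overnight (~16 h, 37 °C) at 1,500 cells/well, were loaded with Ca8 no-wash dye plus quencher for 45-90 min at room temperature. Compounds were pinned during FDSS kinetic reading; agonist 54-4 at EC80 (4 uM final) then added.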
D2 PAM = Beta-Arrestin HTS for Positive Allosteric Modulators of the Human D2 Dopamine Receptor: Potentiators; DiscoveRx D2 beta-arrestin cells, luminescence, 90 min; 100% = 57 uM dopamine signal; potentiation, % (no concentration beside the values); 360,000 compounds, 0.23% hits; AID 624464, 2012; active = potentiation of 50% or more; inconclusive = 30% to 50%; inactive = 30% or less;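 further: compound concentration not given in the record; tested on top of an EC20 dose of dopamine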
Target sequence (P14416 whole entry, looked up): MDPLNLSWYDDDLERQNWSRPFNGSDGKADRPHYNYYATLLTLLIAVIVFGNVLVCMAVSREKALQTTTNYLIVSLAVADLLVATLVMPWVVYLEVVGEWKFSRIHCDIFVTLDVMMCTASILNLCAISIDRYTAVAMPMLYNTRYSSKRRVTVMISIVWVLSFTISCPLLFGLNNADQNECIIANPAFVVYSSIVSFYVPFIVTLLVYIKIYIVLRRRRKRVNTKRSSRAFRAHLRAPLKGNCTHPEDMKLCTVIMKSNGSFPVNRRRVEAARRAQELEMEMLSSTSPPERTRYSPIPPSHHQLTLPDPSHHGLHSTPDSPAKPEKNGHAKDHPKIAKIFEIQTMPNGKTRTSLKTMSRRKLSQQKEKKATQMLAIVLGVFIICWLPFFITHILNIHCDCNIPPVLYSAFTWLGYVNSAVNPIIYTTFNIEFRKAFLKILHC
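PathHunter D2 cells, attached overnight at 37 deg C, received compound in DMSO plus dopamine at EC20 (50 nM final) for 90 min at 37 deg C. Beta-arrestin recruitment was read as luminescence after 1 h with detection reagent at ambient temperature.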
TRPML1 agonist = qHTS for Agonists of the Human Mucolipin Transient Receptor Potential 1 (TRPML1); AID 624414, 2012; TRPML1-expressing cells, Ca2+ dye fluorescence, FDSS; host cell line not named in the record; reference of the full effect not given here; activation, % (concentration not given with the values); 410,000 compounds, 0.12% hits; in the data active = activation above about 50%; inconclusive = about 30% to 50%; inactive = below about 30%; further: 0% is about no effect; the text of the record puts the active cut at 80%
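Agonist activity was taken from a 110 s kinetic Ca2+ dye read on the FDSS after pinning compounds onto TRPML1-DL cells. The cells were seeded at 1,500/well with Tet inducer, incubated about 16 h, then dye-loaded at room temperature.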
D2 agonist = Beta-Arrestin HTS for Positive Allosteric Modulators of the Human D2 Dopamine Receptor: Agonists | D(2) dopamine receptor (Homo sapiens), P14416 | DiscoveRx PathHunter D2 beta-arrestin, luminescence, 90 min; 100% = 57 uM dopamine signal | activation, % (test concentration not listed) | 360,000 compounds, 0.084% hits | AID 624465, 2012; in the data active = activation above about 40%; inconclusive = about 15% to 40%; inactive = below about 15%; further: compound concentration not given in the record; the text of the record calls up to 30% inactive
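DiscoveRx PathHunter D2 beta-arrestin cells (2,100/well) attached overnight, then compound-stimulated 90 min at 37 C in HBSS/10 mM HEPES/0.1% Tween-20 buffer; beta-galactosidase complementation read by luminescence after 1 h at ambient temperature. Dopamine 57 uM final (EC100) as control.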
Six1-Eya2 blk = qHTS Assay for Inhibitors of the Six1/Eya2 Interaction; 360,000 compounds, 0.56% hits; activity change, % (concentration not given with the values); AlphaScreen GST-Six1/His-Eya2 binding, biochemical; stronger effect = lower value; control for the full effect not named in the record; Homeobox protein SIX1 (Homo sapiens) + Protein phosphatase EYA2 (Homo sapiens), …; AID 651725, 2012; in the data active = activity change below about -65%; inconclusive = about -30% to -65%; inactive = above about -30%; further: on the % scale 0 is the no-effect control and ±100 the full control effect
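Homogeneous AlphaScreen proximity assay pairing GST-Six1 with His-tagged Eya2 (added as 5X mix: 250 nM and 500 nM) in 50 mM Tris pH 8.0, 300 mM NaCl, 1 mM TCEP. Glutathione donor and nickel acceptor beads; 1 h, 37 °C, dark.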
PINK1 expr mod = A Quantitative High throughput Screen to Identify Chemical Modulators of PINK1 Expression. PINK1 immunofluorescence, high-content cytometry, 24 h. Potency, µM (highest dose often 76.6 µM), for the others: at the top dose activation (PINK1 increase), most hits filed as activators. 410,000 compounds, 0.2% hits. AID 624263, 2012; active = well fitted activation curve with a large enough effect; inconclusive = small, poorly fitted or top-dose-only effect; inactive = flat fitted curve, though single readings scatter; cell line not stated here;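 further: potency means the concentration at half of the fitted maximal effect; % of control where 0% means no effect; nearly all actives have a fitted effect of over 65% in size; a mitochondrial uncoupler was the plate control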
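PINK1 protein, normally rapidly degraded, was detected by immunofluorescence after 24 hour compound treatment of a stable cell line. Titration data (5 concentrations) came from laser-scanning cytometry, with CCCP-treated wells as controls.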
The depositor's hits bear a star; ? = inconclusive; . = not tested or not shown; & = joins results of further samples; [ ] = remark or other dose.

SMILES	TRPML1 blocker	D2 PAM	TRPML1 agonist	D2 agonist	Six1-Eya2 blk	PINK1 expr mod
Cc1ccc(S(=O)(=O)N(C)C)cc1NC(=O)COC(=O)CCC(=O)c1cccs1	-2	-5	-1.3	-4.0	-1	2.4%
Clc1ccc(OCc2nnc(SCc3nnc(-c4ccccc4)o3)o2)c(Cl)c1	0	-1	5.0	-5.8	3	-1.5%
CCOC(=O)c1ccc(Nc2nc(N)c3cc(OC)c(OC)cc3n2)cc1	-9&7	-6	3.3&0.5	-1.4	-10	5.0%&1.2%
Cc1ccc(C(=O)N/C(=C/c2cccnc2)C(=O)NCc2ccco2)cc1	6	-19	0.1	-3.8	-1	1.8%
Cc1cccc(CS(=O)(=O)Cc2ccc(C(=O)NCc3cccs3)o2)c1	11	-4	0.2	2.0	17	-0.2%
COc1ccc(OCC2c3cc(OC)c(OC)cc3CCN2C(=O)c2ccc(F)cc2)cc1 (configuration not stated)	26	.	2.8	.	.	9.4%
OCC1OC(n2cnc3c(NCCc4ccccc4)ncnc32)C(O)C1O (configuration not stated)	-6	-3	-0.4	1.7	5	-0.1%
Cc1c(C(=O)Nc2cccc(Cl)c2)oc2ccc(S(=O)(=O)N(C)C3CCCCC3)cc12	7	.	1.0	.	.	2.1%
CNc1c([N+](=O)[O-])cnn1-c1ccccc1F	2	-4	0.3	-4.7	4	-0.2%
COCCn1c(-c2ccc(F)cc2)nc2cccnc21	7	-10	1.6	4.5	4	-0.8%
S=C(NCC1CCCO1)Nc1cc(Cl)c(Cl)cc1Cl (configuration not stated)	-5	-5	2.9	0.3	14	5.2%
CCC(=O)Nc1cccc(NC(=O)c2cccc([N+](=O)[O-])c2)c1	1	-2	0.4	-2.0	-1	-4.0%[38.3 µM]
CCCCOC(=O)C1C2C=C[C@]3(CN(C(C)c4ccc(OC)cc4)C(=O)[C@H]13)O2 (some centres not stated)	0	-9	-0.9	-1.4	1	3.8%
O=C1CC(c2ccccc2)Cc2nc(N3CCc4ccccc43)ncc21 (configuration not stated)	6	16	0.6	1.6	8	.
CN1C(=O)/C(=C/c2ccc(C(=O)Nc3ccc(O)cc3C(=O)O)cc2)SC1=S	2	-2	1.0	2.5	-29	0.1%
CC(=O)c1cccc(NC(=O)C2Cc3c(-c4ccc5c(c4)OCO5)ccnc3O2)c1 (configuration not stated)	.	-9	-0.5	-1.7	-17	2.3%
Cc1ccccc1NC(=O)c1sc(NC(=O)COc2ccccc2)c(C#N)c1C	4	0	1.0	2.4	0	7.4%
O=C(NCC(c1cccnc1)N1CCOCC1)c1cccs1 (configuration not stated)	25	-1	0.2	0.1	12	-0.2%
O=C(NC(=S)Nc1nc(-c2cccc([N+](=O)[O-])c2)cs1)c1ccccc1Cl	14	-4	1.2	2.1	10	-0.4%
COc1ccc(/C=N/NC(=O)c2nc(-c3ccccc3)cc(-c3ccccc3)n2)cc1OC	7	-5	0.6	1.6	-22	1.3%
Cc1ccc(-c2c(C)n([O-])c3c([n+]2=O)CCCCC3)o1	-7	-9	-0.1	-2.9	-2	6.9%
C=CCOc1ccnc(-c2ccccc2)n1	-3	-6	0.2	-0.4	5	2.4%
COc1cc(CN2CCN(Cc3c[nH]c4ccccc34)CC2CCO)cc(OC)c1 (configuration not stated)	.	-69	.	0.9	0	1.5%
O=C(CNC(=O)C(c1ccccc1)c1ccccc1)N/N=C/c1ccc(O)c([N+](=O)[O-])c1	-4	-9	-0.6	-3.5	0	-2.2%
CCN(c1ccccc1)S(=O)(=O)c1nnc(NC(=O)c2ccccc2)s1	-18	.	1.9	.	.	-0.5%
CCOC(=O)C(=O)NNc1cccc(C)c1C	1	13	0.6	2.0	10	0.8%
O=C(Cn1cnc2c(oc3ccccc32)c1=O)N1CCN(c2ccccc2)CC1	0	-5	0.0	-2.1	7	5.5%
O=c1c2c(-c3cccs3)csc2ncn1/N=C/c1ccccn1	-4	-3	-0.1	-4.4	8	0.2%
COc1ccccc1NC(=O)N1CCC(c2nc3cc(C)c(C)cc3[nH]2)CC1	19	-7	0.1	-3.6	17	3.0%
CCn1c(=O)c2sccc2n2c(CCC(=O)N3CCN(c4ccc(C(C)=O)cc4)CC3)nnc12	5	.	0.9	.	.	0.3%
O=S(=O)(NCc1ccccc1)[C@@H]1CC2C=CC1C2 (some centres not stated)	-3	-43	-0.3&-1.3	-1.5	-2	0.8%
CCc1cc(=O)oc2c3c(cc(OCC(=O)Nc4cccnc4)c12)OC(C)(C)CC3	.	-17	.	5.6	-12	0.8%
CCCc1nnc(SCC(=O)N2CCCCC2C)n1CCOC (configuration not stated)	18	-10	0.0	-0.3	12	2.5%
CC(=O)C1=C(NC(=O)c2ccccc2F)C[C@@H]2[C@H]1C2(C)C	-8	0	-0.6	2.5	-3	14%
NC(=O)c1cnn(Cc2ccc(Cl)cc2)c1N	0	-4	-0.4	-1.4	2	4.7%
COc1ccc(C(=O)N2CCN(c3ncccn3)CC2)cc1[N+](=O)[O-]	15	-23	0.5	1.4	5	-0.9%
CCOC(=O)c1ccc(NC(=O)CSc2c3c(nc4cc(Cl)ccc24)CCCC3)cc1	-13	.	0.5	.	.	-1.6%
NC(=O)[C@@H]1[C@@H]2C(=O)N(c3ccc(F)cc3)C(=O)[C@@H]2[C@H]2C=Cc3ccccc3N21	6	-10	1.2	-4.3	-4	3.3%
CCS(=O)(=O)c1ccc(-c2csc(-c3ccccc3)n2)c(Cl)c1Cl	3	-6	0.0	2.3	3	3.1%
C/C(=N/NC(=O)c1ccc2c(c1)OCO2)c1cccc([N+](=O)[O-])c1	-15	-4	0.9	2.6	9	8.1%
Cc1ccc(Nc2nc(-c3ccc(O)cc3O)cs2)nc1	6	6	2.8	9.1	-17	-0.9%
Nc1nc(Nc2ccc(Cl)cc2)nc2ccccc12	10	-13	0.9	-2.0	8	0.0%
CN(C)c1nc(Cl)nc2c1nc(Cl)n2C1CCCCO1 (configuration not stated)	9	3	-0.6	-3.3	1	2.0%
Cc1nnc(SCC(=O)NNC(=O)c2ccc(Cl)cc2)n1CC1CCCO1 (configuration not stated)	5	2	0.1	-1.1	-3	0.9%
O=[N+]([O-])c1ccc(C(O)CN2CCOCC2)cc1 (configuration not stated)	5	-1	0.4	-1.2	2	0.7%

Entries shown so far containing a furan ring, fused or not, in the order listed:
SMILES	TRPML1 blocker	D2 PAM	TRPML1 agonist	D2 agonist	Six1-Eya2 blk	PINK1 expr mod
Cc1ccc(C(=O)N/C(=C/c2cccnc2)C(=O)NCc2ccco2)cc1	6	-19	0.1	-3.8	-1	1.8%
Cc1cccc(CS(=O)(=O)Cc2ccc(C(=O)NCc3cccs3)o2)c1	11	-4	0.2	2.0	17	-0.2%
Cc1c(C(=O)Nc2cccc(Cl)c2)oc2ccc(S(=O)(=O)N(C)C3CCCCC3)cc12	7	.	1.0	.	.	2.1%
Cc1ccc(-c2c(C)n([O-])c3c([n+]2=O)CCCCC3)o1	-7	-9	-0.1	-2.9	-2	6.9%
O=C(Cn1cnc2c(oc3ccccc32)c1=O)N1CCN(c2ccccc2)CC1	0	-5	0.0	-2.1	7	5.5%

Back to the main list, repeating the 2 entries before the break.
SMILES	TRPML1 blocker	D2 PAM	TRPML1 agonist	D2 agonist	Six1-Eya2 blk	PINK1 expr mod
Cc1nnc(SCC(=O)NNC(=O)c2ccc(Cl)cc2)n1CC1CCCO1 (configuration not stated)	5	2	0.1	-1.1	-3	0.9%
O=[N+]([O-])c1ccc(C(O)CN2CCOCC2)cc1 (configuration not stated)	5	-1	0.4	-1.2	2	0.7%
CC12C(=O)N(c3cccc(OC(=O)c4ccco4)c3)C(=O)C1C1c3ccccc3C2c2ccccc21 (configuration not stated)	24	-4	2.4	-2.3	-11	1.5%
CCSc1nc(N2CCOCC2)c2c(c1C#N)CCCC2	31	-8	3.8	-2.0	7	3.5%
COc1cccc(N2C(=O)CC(N3CCN(S(=O)(=O)c4ccccc4[N+](=O)[O-])CC3)C2=O)c1 (configuration not stated)	-15	0	1.5	?	-3	0.1%
Cc1cccc(C)c1-n1nnnc1C(c1cc2ccccc2o1)N1CCN(C/C=C/c2ccccc2)CC1 (configuration not stated)	-7	-17	-0.5	-5.2	?	2.2%
S=C(NCCCN1CCOCC1)N1CCN(c2nc(-c3ccccc3)cs2)CC1	16	-7	0.6	-2.5	-9	7.1%
CCOc1cccc(/C(O)=C2/C(=O)C(=O)N(CCOC)C2c2ccco2)c1 (configuration not stated)	0	-26	-0.1	-0.3	-1	0.5%
COC(=O)c1cccc(-c2ccc(C(c3c(C)[nH][nH]c3=O)c3c(C)[nH][nH]c3=O)o2)c1	21	-11	4.4	-4.9	-4	-1.7%
CN(c1ccccc1)S(=O)(=O)c1cccc(NC(=O)C2=NNC(=O)CC2)c1	20	-1	2.1	2.3	-7	2.3%
Cc1cc(C)c(S(=O)(=O)N2C[C@H]3CON(C)[C@H]3C[C@H]2c2ccc(N3CCCCC3)cc2)c(C)c1	.	-6	0.5	-3.4	?	2.6%
O=C(CCNS(=O)(=O)c1cccc2nsnc12)NCc1ccccc1Cl	5	-4	1.6	1.9	3	2.5%
O=C(NC1CCC(O)CC1)c1cccc2cccnc12 (configuration not stated)	22	-5	0.5	-4.9	2	2.8%
COc1ccc(C(=O)OCC(=O)Nc2ccc3[nH]c(=O)[nH]c3c2)c(OC)c1OC	-5	21	-1.2	-0.7	?	-0.4%
CCN(CC(=O)Nc1ccccc1OC)C(=O)CN1C(=O)NC(C)(c2ccc(C)cc2)C1=O (configuration not stated)	-1	-2	3.7	-0.1	8	0.0%
CCOC(=O)COc1ccc(/C=C2/SC(=Nc3ccccc3)N(Cc3cccnc3)C2=O)cc1OC	14	-18	0.7	1.9	-26	1.3%
COc1ccc(C(=O)O/N=C2\CCS(=O)(=O)c3sccc32)cc1	6	-23	1.6	7.2	4	7.4%
O=C(Cc1ccc([N+](=O)[O-])cc1)NCCc1ccc2c(c1)OCO2	-3	-18	0.4	-3.7	-4	-1.3%
COCCNc1ncnc2c1ncn2[C@H]1CN(Cc2ccc3c(c2)OCO3)C[C@@H](CO)O1	.	-4	-0.3	-0.6	2	1.4%
Cc1ccc(-c2nc3c(Cl)cc(C(F)(F)F)cn3c2Cc2ccccc2C(F)(F)F)cc1	.	.	0.1	.	1	2.0%
Cc1cc(O)cc(O)c1C(=O)Cc1ccccc1	21	2	1.0	-1.7	14	5.0%
COc1ccc(N=c2scc(C)n2CCCN2CCCC2=O)cc1	7	-12	-0.8	-0.8	5	-0.2%
COC(=O)c1ccccc1NC(=O)c1noc2c1CCCC2	-3	-3	0.8	-1.7	8	-19%[38.3 µM]

Compound activity (PubChem)
